HIV TAR-Tat: HIV-1 TAR-Tat binding disruption. HIV-1 TAR RNA, Tat peptide displacement FRET; stronger effect = higher value. z-score (test concentration not listed). 0.6% of 100,000 active. AID 1259389;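 further: score is relative to mean and SD of negative controls; some compounds called inactive have numbers as strong as hits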
CDC25B-CDK2 inh: human CDC25B-CDK2/CyclinA binding inhibition | AID 1259370 | HTRF CDC25B-CDK2/CyclinA binding, anti-His/anti-Flag; stronger effect = higher value | 0.72% of 94,000 active | z-score (test concentration not listed);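 further: score is relative to mean and SD of negative controls; strong numbers were not always called active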
* marks the source's active call; other numbers are inactive results; . = no result given.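 How the source made its calls: active means z-score from 3 up in half or more of its runs; inactive means the rest.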

Every second line gives: HIV TAR-Tat	CDC25B-CDK2 inh
COc1ccc(NC(=O)c2cc3c(s2)-c2ccsc2CC3)c(OC)c1
  -1.21	.
COc1ccc(S(=O)(=O)n2nc(-c3ccccc3)cc2N)cc1
  0.11	-1.35
COc1cccc2c1OCC(=O)N(C1CCCC1)C2C(=O)NC1CCCC1 (centres undefined)
  1.27	.
CCOc1ccccc1C1N=C(c2ccc3c(c2)OCO3)CC(c2ccccc2O)N1 (centres undefined)
  .	-0.84
CCCN1C(=O)C(Cc2nc3ccccc3c(=O)n2CC)c2ccccc21 (centres undefined)
  0.62	-0.16
O=S(=O)(c1cccnc1)N1CCN(c2ncnc3c2nnn3-c2ccccc2)CC1
  0.53	.
O=c1[nH]c(SCc2ccc(Cl)cc2)nc2c1CSC2
  .	-2.53
Cc1ccc(C)c(N2C(=O)N(Cc3cccc(F)c3)C3CS(=O)(=O)CC32)c1 (centres undefined)
  0.63	.
O=C(c1ccc(CSc2ccc(Cl)cc2)o1)N1CCOCC1
  .	-0.84
CCOc1cc(N2CCOCC2)c(OCC)cc1NC(=O)c1cccs1
  .	-0.95
CC(C)CCNC(=O)C1CCN(c2nn3c(=O)c4c(nc3s2)CCCC4)CC1
  1.41	-0.37
COc1ccc(-c2cn(-c3ccc(Cl)cc3)c(=S)[nH]2)cc1
  .	0.07
O=C(Sc1ccc(C(F)(F)F)cn1)c1csc(C2COc3ccccc3O2)n1 (centres undefined)
  .	-1.47
CCOc1cc(C2C=C(C(=O)O)Nc3nnnn32)ccc1OC(C)C (centres undefined)
  1.91	.
Cc1cc(C)cc(NC(=O)CSc2nc(-c3ccco3)nc3cc(=O)[nH]n23)c1
  -0.69	.
CCN(CC)S(=O)(=O)c1ccc2nc(NC(=O)c3ccc4ccccc4n3)sc2c1
  1.37	.
Clc1ccc(Nc2c(-c3ccc(N4CCOCC4)cc3)nc3cnccn23)cc1
  -0.49	1.03
CCNC(=O)C1CCCN(c2nnc(-n3c(C)ccc3C)s2)C1 (centres undefined)
  -1.69	1.11
CC(=O)c1cccc(NC(=O)c2cc(C(=O)Nc3cccc(C(C)=O)c3)cc(N3C(=O)c4ccccc4C3=O)c2)c1
  .	2.6
CCCSc1nc2c(c(=O)[nH]1)C(c1ccc(Cl)cc1)C(C(=O)OC(C)C)=C(C)N2 (centres undefined)
  -0.71	-1.1
Cc1c(C(=O)NCC2CCCO2)oc2ccc3c(c12)C(=O)CC1(CCC(C)CC1)O3 (centres undefined)
  -0.04	0.13
COCCCNc1nc2c(S(=O)(=O)c3ccc(C)c(C)c3)nnn2c2ccsc12
  -0.32	.
O=[N+]([O-])c1cccnc1Nc1ccccc1
  0.91	-0.63
Cc1nn2c(=O)cc(CSCc3ccccc3)nc2s1
  -1.27	-2.72
O=C(O)C1=CC(c2cn[nH]c2-c2ccc(F)cc2)n2ncnc2N1 (centres undefined)
  1.64	.
Cc1nn(-c2ccc(Br)cc2)cc1-c1noc(C(=O)N2CCCC2)n1
  -1.4	.
Cn1ccnc1SCC(=O)Nc1nc2ccccc2s1
  -0.27	-1.16
CCOC(=O)C(C)Sc1ccc2nnc(-c3ccccc3)n2n1 (centres undefined)
  .	-1.41
O=C(CSCc1nc2cccnc2n1C1CCCCC1)Nc1cccnc1
  -4	.
Cc1cc(C)n2nc(COc3ccccc3)c(-c3ccccc3)c2n1
  2.05	-0.86
Cc1ccc(NS(=O)(=O)c2cc(-c3noc(C)n3)cs2)cc1
  1.26	.
CCn1c(SCc2ccccn2)nc(=O)c2c(C(=O)OC)cc(C3CC3)nc21
  -0.14	.
CCOC(=O)C1CCCN(c2c(N3CCCCC3)c(=O)c2=O)C1 (centres undefined)
  2.29	-0.87
Cc1ccc(-c2nnc(NC(=O)c3ccc4c(c3)OCCO4)o2)c(C)c1
  0.74	.
CN(C)c1ccc(-c2nc3n(n2)C(c2ccncc2)C2=C(CC(C)(C)CC2=O)N3)cc1 (centres undefined)
  -1.78	-1.47
Fc1ccc(CNc2ncnc3onc(-c4cc(F)cc(F)c4)c23)cc1
  0.26	.
Cc1nn(CC(=O)N2CCC(C)CC2)c(=O)c2cc3cc(F)ccc3n12
  1.41	-0.84
Cc1cccc(NC(=O)c2ccc(Cl)cc2)n1
  .	-0.66
O=C(c1cc2c(s1)-c1ccccc1OC2)N1CC=C(c2ccccc2)CC1
  0.05	-1.72
CC(=O)N1CCc2cc(Br)cc(S(=O)(=O)N3CCCC3c3ccccc3F)c21 (centres undefined)
  0.7	-2.12
O=C(Cn1nc(C(F)(F)F)c2c1CCCC2)NCc1cccnc1
  .	-0.2
Clc1ccc(Nc2nc(NCc3ccco3)c3ccccc3n2)cc1
  .	0.4
CC(C(=O)O)N1C(=O)C2CCCCC2C1=O (centres undefined)
  0.12	-0.1
COc1ccc(Cc2nn3c(Cc4ccccc4)nnc3s2)cc1
  0.05	-0.99
COc1cc(C(=O)O)c([N+](=O)[O-])c(OC)c1OC
  .	1.5
CCCC(=O)Nc1ccccc1SCc1cc(=O)n2cc(C)sc2n1
  0.6	.
CC1=C(c2ccc(C(C)C)cc2)S(=O)(=O)N=C1N1CCC(C(=O)NC2CCCCC2)CC1
  0.13	.
CC(C)n1c(SCC(=O)Nc2ccccc2Cl)nc2c(oc3ccccc32)c1=O
  -0.38	-1.39
Nc1nc(NC(=O)CCCC(=O)O)nn1-c1ccccc1
  0.64	0.44
c1ccc2c(c1)c(N1CCNCC1)nn1nnnc21
  0.56	-2.05
Cc1nc(-c2cccs2)c(CC(=O)NC2CCCC2)s1
  -1.3	-2.15
CCc1ccc(NS(=O)(=O)c2ccc3c(c2)N(C)CCO3)cc1
  0.62	.
COc1ccc(-c2cc(-c3nc4c5c(ncn4n3)CCC5)[nH]n2)cc1
  0.72	-0.42
CCOc1ccc(NC2c3ccccc3C(=O)N2c2cccnc2)cc1 (centres undefined)
  1.18	2.2
COc1ccc(COC(=O)C2=C(C)NC3=C(C(=O)CC(C)(C)C3)C2c2ccc(F)c(F)c2)cc1 (centres undefined)
  1.29	-4.16
CC(C)(C)/C(O)=C/c1nc2ccccc2[nH]c1=O
  .	-0.94
Cc1ccc(-c2nc3ccccc3c3nnc(SCC(=O)N4CCCC4)n23)cc1
  0.44	.
CCN1CCCC1CNC(=O)C1=Cc2sc3c(c2CS1)CCCC3 (centres undefined)
  -1.11	.
CN(C(=O)CSc1n[nH]c(-c2ccccc2)n1)C1CCCCC1
  1.44	.
CCOC(=O)C1=C(C)Nc2ncnn2C1c1ccc(OC)c(OC)c1 (centres undefined)
  -0.33	0.2

The results go on.
Every second line gives: HIV TAR-Tat	CDC25B-CDK2 inh
O=C(Nc1nc2ccc(Br)cc2s1)c1cccs1
  1.42	.
COC(=O)c1sc2ccccc2c1S(=O)(=O)N1CCN(c2ccccc2)CC1
  -1.6	.
Cc1cccc(Cn2c(NCc3ccc4c(c3)OCO4)nc3c2c(=O)n(C)c(=O)n3C)c1
  -2.09	-1.37
Cc1cccn2c(=O)c(C(=O)NCCCO)c(O)nc12
  0.6	0.51
CCOc1ccc(-c2nc3c(C#N)c[nH]n3c2NC2CCCC2)cc1
  -1.46	-0.07
Cc1cc(C(=O)CSc2ncnc3sc4c(c23)CCCC4)c(C)n1CC1CCCO1 (centres undefined)
  .	-2.04
COc1cc(NCC(O)Cn2nnnc2-c2ccccc2)c(OC)cc1Cl (centres undefined)
  -0.21	-2.09
O=C1NC(c2ccc(Cl)cc2)C(C(=O)c2cccs2)C(O)(C(F)(F)F)N1 (centres undefined)
  .	-2.11
Cc1cc2nc(CN(C)c3ccc(Cl)cc3)cc(=O)n2o1
  -1.26	.
COc1c(C)cnc(CSc2nc3ncccc3o2)c1C
  -0.53	.
COCCCNC(=O)C1=Cc2cc(Br)ccc2OC1
  1.55	.
CCSCCOC(=O)C1=C(C)NC2=C(C(=O)CCC2)C1c1ccc(OC)c(OC)c1 (centres undefined)
  -0.34	-2.44
CCCc1cc(=O)[nH]c(SCC(=O)Nc2ccc(C(=O)OCC)cc2)n1
  .	0.38
CCOc1cc(C)c(Cl)cc1S(=O)(=O)n1ccnc1CC
  1.24	0.11
COc1cc(-n2cnnn2)ccc1S(=O)(=O)N1CCCCC1
  -0.2	-1.15
CN(CCO)c1cc(C(F)(F)F)nc2ccccc12
  .	-0.32
O=C(Nc1c(-c2ccccc2)nc2ccccn12)c1ccc(Br)cc1
  -0.6	0.32
COc1ccc(-c2noc(N3CCN(c4ccc(OC)cc4)CC3)n2)cc1
  -0.03	-1.03
CC(C)(C)C1CCC(=O)C(C2(O)C(=O)Nc3ccc(Br)cc32)C1 (centres undefined)
  -4.22	1.65
CCC(CC)c1nn2c(=O)cc(CSc3ccccc3NC(=O)c3ccco3)nc2s1
  -0.91	.
O=C(CC1(O)C(=O)N(CCc2ccccc2)c2ccccc21)c1ccc(F)cc1 (centres undefined)
  -0.1	-1.13
Cc1cccc(N2CCN(c3ncnc4c3nc3n4CCCCC3)CC2C)c1 (centres undefined)
  0.09	.
NC(=O)CN1CCCN(S(=O)(=O)c2ccc(Br)cc2)CC1
  .	-1.5
O=C1c2cccc3c2[C@H](CCC3)CN1[C@@H]1CN2CCC1CC2
  1.26	.
Cc1c(C(=O)Nc2ccc(F)c(Cl)c2)sc2nc3n(c(=O)c12)CCCC3
  1.28	.
CC1CCN(c2nn3c(=O)c(C(=O)NC4CC4)cnc3s2)CC1
  0.47	.
Cc1ccc(C2C3=C(CCCC3=O)Nc3ncnn32)cc1 (centres undefined)
  2.06	-1.64
O=C(CCC(=O)N1CCOc2ccccc21)NCc1cccs1
  -1.37	-0.67
C=CCN(C(=O)c1cc2c(s1)-c1ccccc1OC2)c1ccccc1
  0.05	-0.48
CCCc1cc(=O)n2nc(N3CCC(C(=O)NC)CC3)sc2n1
  1.96	2.56
COc1ccc(OC)c(CNC(=O)c2cnc3sc4c(n3c2=O)CCCC4)c1
  1.39	.
COc1ccc(Br)c(C(=O)Nc2ncccn2)c1
  .	-1.76
CC(C)(C)c1ccc(C(O)CCCN2CCC(C(O)(c3ccccc3)c3ccccc3)CC2)cc1 (centres undefined)
  .	-0.98
CCCc1nc2nc(C)c(NS(=O)(=O)c3cccs3)c(=O)n2[nH]1
  0.66	-2.57
COc1cc([N+](=O)[O-])c(C#N)c(Cl)c1OC
  .	-2.16
COc1ccccc1-c1c(C)nn2c(NCC3CCCO3)cc(C)nc12 (centres undefined)
  1.64	.
Cc1nnc2c(Nc3ccc(F)c(Cl)c3)nc3ccccc3n12
  0.87	-0.67
Cn1nc(C(=O)N2CCOCC2)c(S(=O)(=O)N2CCOCC2)c1Cl
  .	-1.12
Cc1cccc(-c2nc3c(C#N)c[nH]n3c2NC2CCC(C)CC2)c1 (centres undefined)
  -1.09	-0.17
COc1ccc(C(=O)COC(=O)c2cccc(N3C(=O)c4ccccc4C3=O)c2)cc1[N+](=O)[O-]
  .	-2.17
Cc1ccc2cc3c(nc2c1)N(C(=O)C1CC1)CC3
  -1.28	-1.06
CCOC(=O)Cn1c2c(c(C(F)(F)F)cc1=O)C(=O)CCC2
  .	-0.69
O=C(CCN1C(=O)c2ccccc2C1=O)Nc1sc2c(c1C(=O)NCC1CCCO1)CCCC2 (centres undefined)
  .	0.8
CCCCc1nn2c(=O)cc(CSc3nnc(NC(C)=O)s3)nc2s1
  1.23	.
Cc1ccc(-c2nnc3ccc(SCC(=O)NC4CCCCC4)nn23)cc1
  .	-0.9
Cc1ccc(Cn2c(Sc3ncccn3)nc3c2c(=O)[nH]c(=O)n3C)cc1
  0.23	-0.91
CC(C)N1CCC(N2CCN(c3ccccc3)CC2)CC1
  .	0.24
C1=C(c2ccccc2)CCN(c2ncnc3c2nc2n3CCCCC2)C1
  0.82	.
O=C(CN1C(=O)c2cccnc2Oc2ccccc21)NCc1ccccn1
  1.11	.
O=C1c2ccccc2C(O)N1Cc1ccccc1Cl (centres undefined)
  2.21	-1.13
Cn1c(C(=O)Nc2nc3ccccc3s2)cc2c(=O)n(C)c3ccccc3c21
  .	-1.4
Cn1nnnc1SCCNCc1ccc(-c2cccc(Cl)c2)o1
  0.68	-1.35
COc1ccc(OCCC(=O)N/N=C/c2ccc([N+](=O)[O-])cc2)cc1
  .	-1.44
Cc1ccc(S(=O)(=O)Nc2c(C)nc3nc[nH]n3c2=O)c(C)c1
  0.38	-0.3
O=C(NCCC1=CCCCC1)c1cc(CN2CCOCC2)on1
  1.05	.
CCOc1ccc(NC2SC(=O)NC2=O)cc1 (centres undefined)
  -0.97	-0.76
COCCNc1nc(NCc2ccc(Cl)cc2)c2cnn(C)c2n1
  1.05	.

Fetched by structure from the list above, four records:
Every second line gives: HIV TAR-Tat	CDC25B-CDK2 inh
COc1ccc(OC)c(CNC(=O)c2cnc3sc4c(n3c2=O)CCCC4)c1
  1.39	.
CCCCc1nn2c(=O)cc(CSc3nnc(NC(C)=O)s3)nc2s1
  1.23	.
Cc1cccc(-c2nc3c(C#N)c[nH]n3c2NC2CCC(C)CC2)c1 (centres undefined)
  -1.09	-0.17
COc1ccc(OCCC(=O)N/N=C/c2ccc([N+](=O)[O-])cc2)cc1
  .	-1.44

Structures above with a COOH group:
Every second line gives: HIV TAR-Tat	CDC25B-CDK2 inh
CCOc1cc(C2C=C(C(=O)O)Nc3nnnn32)ccc1OC(C)C (centres undefined)
  1.91	.
O=C(O)C1=CC(c2cn[nH]c2-c2ccc(F)cc2)n2ncnc2N1 (centres undefined)
  1.64	.
CC(C(=O)O)N1C(=O)C2CCCCC2C1=O (centres undefined)
  0.12	-0.1
COc1cc(C(=O)O)c([N+](=O)[O-])c(OC)c1OC
  .	1.5
Nc1nc(NC(=O)CCCC(=O)O)nn1-c1ccccc1
  0.64	0.44
